VDR inhibitor = Inhibitors of the vitamin D receptor (VDR): qHTS; actives 0.93% (n = 400,000); Vitamin D3 receptor (Homo sapiens), P11473; Potency, µM, for inactives: max response, negative = inhibition, hits mostly inhibitors; VDR-SRC2-3 peptide fluorescence polarization, 2 h; active means well fitted inhibition curve with a large enough effect; inconclusive means small, poorly fitted or top-dose-only effect, or another doubt; inactive means no such curve, though single readings can be large or run the other way; further: series mostly up to about 120 µM
Target sequence (P11473 whole entry, looked up): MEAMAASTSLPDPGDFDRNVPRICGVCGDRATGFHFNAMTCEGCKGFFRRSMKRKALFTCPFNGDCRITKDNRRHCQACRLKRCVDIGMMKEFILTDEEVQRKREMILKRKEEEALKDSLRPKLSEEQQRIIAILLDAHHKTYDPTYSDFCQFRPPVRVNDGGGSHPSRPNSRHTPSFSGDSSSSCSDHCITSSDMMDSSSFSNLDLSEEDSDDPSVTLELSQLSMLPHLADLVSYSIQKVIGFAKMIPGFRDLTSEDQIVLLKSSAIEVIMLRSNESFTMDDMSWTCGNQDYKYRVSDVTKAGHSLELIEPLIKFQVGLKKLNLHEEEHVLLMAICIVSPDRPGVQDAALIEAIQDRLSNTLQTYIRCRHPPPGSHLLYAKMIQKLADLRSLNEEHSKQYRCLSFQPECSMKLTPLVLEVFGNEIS
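FP read-out; VDR + SRC2-3 coactivator peptide; 23 nl compound by pintool; 2 h RT incubation; reagents held at 4 deg C, protected from light.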
* marks the source's active call; other numbers are inactive results; ? = inconclusive; & = joins results of further samples; [ ] = remark or other dose. On the % scale 0 is the no-effect control and ±100 the full control effect; potency means the concentration at half of the fitted maximal effect. The list is partial. The share of hits here may be higher or lower than overall.

VDR inhibitor	smiles
2%	O=C(NC(Cc1ccccc1)C(=O)N1CCN(c2ccccc2O)CC1)c1ccccc1 (configuration not stated)
-2%	Cc1cc(-c2ccc(C(=O)O)s2)cnc1N
-5%	Cc1cccc(NC(=O)c2sc3cccc(Cl)c3c2Cl)c1
19%	CC(C)c1ccc(NC(=S)NN2CCN(C)CC2)cc1
-6%	COCCn1c(C)cc(C(=O)COC(=O)c2ccc[nH]c2=O)c1C
3%	COc1cccc(C(=O)Cn2c(=O)n(CCC(=O)NCC3CCCO3)c(=O)c3cc(OC)c(OC)cc32)c1 (configuration not stated)
0%	O=C(NCc1ccc2c(c1)OCO2)c1ccc(CN2CCOCC2)cc1
-1%	NC(=S)Nc1ccc(F)cc1F
-14%	O=C(COc1cnc2ccccc2n1)NCCC1=CCCCC1
35µM*	CCOC(=O)NNc1ccc2nonc2c1[N+](=O)[O-]

Part of the list above, in CSV form.
structure,VDR inhibitor
NC(=S)Nc1ccc(F)cc1F,-1%
O=C(COc1cnc2ccccc2n1)NCCC1=CCCCC1,-14%

(more compounds)
VDR inhibitor	smiles
-31%	Cc1cc(C)c2[nH]c(=O)c(C(c3nnnn3C(C)(C)C)N3CCN(C(=O)c4ccco4)CC3)cc2c1 (configuration not stated)
-4%&2%	CC1CCCCN1C(=O)CCS(=O)(=O)c1cc2c(cc1Cl)NC(=O)CO2 (configuration not stated)
-1%	Cc1ccc(S(=O)(=O)N2CCN(C(=O)C3CCN(c4ncnc5sc(C)c(C)c45)CC3)CC2)c(C)c1
-1%	COc1ccc(-c2csc3ncnc(Sc4nnnn4C)c23)cc1
9%	CCOCCCNC(=O)c1[nH]c2cc(C)ccc2c1Sc1ccc(Cl)cc1
7%	CN(C)c1ccc(-c2nc3cc(N)ccc3o2)cc1
-2%	COc1ccc2cc(C(=O)NCc3ccco3)c(=Nc3ccc(C(=O)O)cc3)oc2c1
0%	COc1ccc(C2/C(=C(/O)c3ccc4c(c3)CC(C)O4)C(=O)C(=O)N2CCN2CCOCC2)cc1 (configuration not stated)
-6%	COc1ccc(N(CC(=O)Nc2ccc(OC)c(OC)c2)S(=O)(=O)c2ccccc2)cc1Cl
16%	CSc1ncccc1C(=O)OCc1c(F)cccc1Cl
8%	O=C(NCc1ccccn1)c1ccc(S(=O)(=O)Nc2ccccc2F)cc1
4%	COC(=O)c1ccc(C2/C(=C(/O)c3ccc(OC(C)C)cc3)C(=O)C(=O)N2c2cc(C)on2)cc1 (configuration not stated)
36%[activator]	COCCCNC(=O)c1ccc(Cn2c(=O)c3ccccc3n(CC(=O)Nc3c(C)cccc3C)c2=O)cc1
2%	CC(C)C(NC(=O)C1CC(=O)N(Cc2ccccc2)C1)c1nc2ccccc2[nH]1 (configuration not stated)
-13%	COc1ccc(OCC2CCCN(Cc3nc(CC4CC4)no3)C2)cc1 (configuration not stated)
2%	Brc1ccc(Cn2c(-c3cncs3)nc3ccccc32)cc1
8%	COc1ccccc1NC(=O)C1=C(C)Nc2nc(SCc3ccccc3F)nn2C1c1ccncc1 (configuration not stated)
1%	CC1CC(C)CN(C(=O)c2cn(C)c3ccc(S(=O)(=O)N(C)C)cc3c2=O)C1 (configuration not stated)
2%&2%	CC(C)(C)C(=O)NC1(C(F)(F)F)NC(=O)N(c2ccc(F)cc2)C1=O (configuration not stated)
-24%	Cc1cc2c(c(=O)o1)C(c1ccc([N+](=O)[O-])o1)C(C#N)=C(N)O2 (configuration not stated)
1%	CSc1nnc(-c2ccc(C(F)(F)F)cn2)o1
-10%	CC1CCN(S(=O)(=O)c2ccc3c(c2)N(CC(=O)N(C)Cc2ccco2)C(=O)CO3)CC1
-15%	Cn1cc(C(=O)N2CCCCCC2)c(=O)c2cc(S(=O)(=O)N3CCCCC3)ccc21
10%	CCOc1ccc(NC(=O)CCn2cnc3onc(-c4ccc(F)cc4)c3c2=O)cc1
?	C=Cc1ccc(CN2CCCN(Cc3ccc(Cl)cc3)S2(=O)=O)cc1
6%	CC(OC(=O)c1ccco1)C(=O)Nc1ncc(Cl)cc1Cl (configuration not stated)
1%	COc1cccc(OCC(=O)NNC(=O)c2ccc(-c3ccccc3)cc2)c1
4%	COc1ccc(-c2nnc(-c3ccccc3O)o2)cc1
8%	COc1cccc(C(=O)Nc2nc3ccc(S(=O)(=O)N4CCCC4)cc3s2)c1
-2%	CSCC[C@@H](N)C(=O)O
-6%	NNc1nc2c(-c3cccc(C(F)(F)F)c3)nnn2c2ccccc12
1%	COc1ccccc1OCCCCn1ncc2ccc(OC)c(OC)c2c1=O
0%	CC(C(=O)NCCCc1ccccc1)c1ccc([N+](=O)[O-])cc1 (configuration not stated)
29%	Nn1c(-c2cccc([N+](=O)[O-])c2)nc2ccccc2c1=O
-1%	COc1ccccc1C(=O)NCc1ccccn1
0%	CCOc1ccc(C(=O)c2cn(Cc3ccccc3)c3c(F)cc(F)cc3c2=O)cc1
-13%	CC(C)(C)NC(=O)COC(=O)/C=C/c1ccccc1[N+](=O)[O-]
7%	COc1ccc(-c2nc3ccccc3[nH]2)cc1
3%	CCN(CC(=O)Nc1ccc2c(c1)OCCO2)S(=O)(=O)c1cccs1
2%	Cc1cc(OC(=O)c2ccco2)c2c(C)cc(=O)oc2c1
6%	Cc1cccc(OCCC(=O)NCC(c2ccco2)N2CCCCC2)c1 (configuration not stated)
-19%	Cc1noc(/C=C/N(C)C)c1S(=O)(=O)N1CCC(C(=O)O)CC1
4%	COc1ccc(CCNC(=O)Cc2c(C)c3cc4c(C)coc4cc3oc2=O)cc1OC
-2%	CCCN(C(=O)c1cccc(S(=O)(=O)N2CCN(Cc3ccccc3)CC2)c1)C1CCS(=O)(=O)C1 (configuration not stated)
-12%	COc1ccccc1NC(=O)COC(=O)/C=C/c1cccs1
3%	CCOC(=O)c1c(S(=O)(=O)N2CCC(C(=O)Nc3ccc(C)c(Cl)c3)CC2)c(C)n(C)c1C
-14%	CCOc1ccc(S(=O)(=O)N2CCOCC2)cc1NC(=O)CCOc1ccc(C(C)(C)C)cc1
-9%	Cc1cccc(C(=O)OCC(=O)NC2CC2)c1O
-13%	CCOC(=O)c1c(C)n(-c2ccccc2)c2ccc(OC(=O)c3ccccc3NC(=O)C(C)C)cc12
?	O=C(N/N=C/C=C/c1ccco1)C(O)c1ccccc1 (configuration not stated)

Further results.
VDR inhibitor	smiles
-16%	S=c1[nH]nc(C2CCCCC2)n1/N=C/c1ccncc1
-15%	O=C(NNC(=S)NC(=O)c1ccccc1[N+](=O)[O-])c1ccccc1Cl
-2%	Cc1ccc(SC(C)C(=O)Nc2ccncc2)cc1 (configuration not stated)
-9%	COc1cc2c(cc1OC)[C@@H](Cc1ccc(OCCC#N)cc1)N(C)CC2
15%	CCC(C)NC(=O)CSc1nc2c(sc3ccccc32)c(=O)n1CCCN1CCOCC1 (configuration not stated)
17%	CC(=O)N(/N=C/c1cccc(C)c1)c1nc(-c2ccc(Br)cc2)cs1
-25%	C/C(CCC(C)C)=N\Nc1ccc(S(N)(=O)=O)cc1[N+](=O)[O-]
-6%	CCOC(=O)Cc1csc(NC(=O)c2ccc(Cl)nc2)n1
-1%	Cc1noc(/C=C/c2ccc(-c3ccccc3Cl)o2)c1[N+](=O)[O-]
-5%	O=C(O)c1cccc(NS(=O)(=O)/C=C/c2ccccc2)c1
-8%&-5%	Cc1ccc2oc(C(=O)N(Cc3ccc(N(C)C)cc3)CC3CCCO3)c(C)c2c1 (configuration not stated)
1%	Cn1c(=O)c2nnn(/N=C(\c3ccccc3)C3CC3)c2n(C)c1=O
-15%	Cc1cc(C)cc(NS(=O)(=O)c2ccc3[nH]cc(C(=O)N4CCCCCC4)c(=O)c3c2)c1
4%	CCOC(=O)c1cc(-c2ccccc2)n(-c2cccc(C(=O)Nc3ccc(OCC)cc3)c2)c1C
3%	CCc1ccc(N2C(=O)/C(=C/c3cccs3)N(CC(=O)OC)C2=S)cc1
-4%&20%	Nc1nc2c(ncn2[C@H]2C[C@H](O)[C@@H](CO)O2)c(=O)[nH]1
-8%	Cc1c(C(=O)NCc2ccco2)oc2ccc(Br)cc12
-6%	Clc1ccccc1OCCCCN1CCNCC1
23%	CC(C)[C@H](NS(=O)(=O)c1ccccc1)C(=O)OCC(=O)NCc1ccc2c(c1)OCO2
-5%	CSc1ccccc1NC(=O)COc1ccc(Cl)cc1
-1%	Cc1ccc(NS(=O)(=O)c2ccc3[nH]c(=O)oc3c2)cc1Cl
-3%	Nc1ncc(-c2ccc([N+](=O)[O-])cc2)cn1
-9%	COc1ccc(NC(=O)CS(=O)CC(=O)Nc2cccnc2)cc1 (configuration not stated)
14%	C=CCN1C(=O)CSc2ccc(C(=O)OCC)cc21
-2%	COCCCNC(=O)CN(c1cc(C(F)(F)F)ccc1Cl)S(C)(=O)=O
2%	O=C(/C=C/c1cccc([N+](=O)[O-])c1)N1CCN(C(=O)c2ccco2)CC1
4%	CCOc1ccc(NC(=O)CSc2nnc(CC)c(CC)n2)cc1
-18%	CCN(CC)c1ccc2cc(C=O)c(=O)oc2c1
-10%	Cc1ccc(-n2cc(CNC(C)c3cnn(C)c3)c(-c3ccc(F)cc3)n2)cc1 (configuration not stated)
7%	COc1ccccc1CNc1nccn(-c2ccc(F)cc2)c1=O
-5%	CCOC(=O)CN1N=C(/C=C/c2ccc(C)cc2)CCC1=O
-6%	CCCCOc1ccc(NS(=O)(=O)c2ccc(-n3cnnn3)cc2)cc1
2%	Cc1cccc(/C=N/NC(=O)C(C)Nc2cccc3ccccc23)n1 (configuration not stated)
2%	C=CCSc1nc2sc3c(c2c(=O)n1-c1ccc(C)cc1)CCN(C)C3
1%	COC(=O)Cc1ccc(NC(=S)NC2CC2)cc1
32%[activator]	CC1SC(c2ccc(Cl)cc2Cl)NC1=O (configuration not stated)
3%	CN(CC(=O)O/N=C(\N)c1ccc([N+](=O)[O-])cc1)S(=O)(=O)c1ccccc1
-9%	O=C(NCCN1CCCC1)c1cc(-c2ccncc2)nc2ccc(S(=O)(=O)N3CCOCC3)cc12
?	Cc1ccc(S(=O)(=O)NN2C(=O)/C(=C/c3cccc(F)c3)SC2=S)cc1
-8%	CCCOc1c(Br)cc(C(=O)OCC(=O)NC2CC2)cc1OC
-11%	CCOC(=O)c1ccc(N2C(=O)c3n[nH]c(C)c3C2c2ccc(CC)cc2)cc1 (configuration not stated)
10%	CC(C)OC(=O)CSc1nc(N2CCOCC2)c2c(c1C#N)CC(C)(C)OC2
-7%	CC(OC(=O)C1CC=CCC1C(N)=O)C(Cl)=C(Cl)Cl (configuration not stated)
-16%	O=C(Cn1cnc2c(NC(=O)OCc3ccccc3)ncnc21)NCCN1CCOCC1
-10%	O=c1cc(-c2ccccc2)c2cc(Cl)c3c(c2o1)CN(Cc1ccccc1)CO3
2%	O=C(Nc1cccc(S(=O)(=O)N2CCCCC2)c1)c1ccc(S(=O)(=O)C(F)F)cc1
-11%	Cn1c(NCc2ccco2)nc2c1c(=O)n(Cc1ccc(Cl)c(Cl)c1)c(=O)n2C
-22%	O=C(c1ccco1)N1CCN(C(=O)c2cc(Cl)nc3ccccc23)CC1
9%	CC(=O)N1CCc2c(sc3c2c(=O)n(-c2ccccc2)c(=O)n3CC(=O)Nc2ccccc2)C1
?	CN(C(=O)CSc1nc(-c2ccc(C(C)(C)C)cc2)c(C#N)c(=O)[nH]1)C1CCCCC1

Continued.
VDR inhibitor	smiles
-18%	Cc1ccc(Cn2c(CCNc3nc(-c4ccc(Cl)c([N+](=O)[O-])c4)cs3)nc3cc(C(=O)NCCCO)ccc32)cc1
89µM*	Cc1sc2nc[nH]c(=S)c2c1-c1ccccc1
-6%	CCC(C)[C@H](NC(=O)NCc1ccccc1)C(=O)O (some centres not stated)
-13%	CCN(CC(=O)NCc1ccc(F)cc1)S(=O)(=O)c1ccc(C)cc1
-5%	O=C1c2ccccc2C(=O)N1CSc1nnc(Nc2ccccc2F)s1
18%	O=C(NCc1nc(-c2ccc(C(F)(F)F)cc2)no1)Nc1ccc(F)cc1F
6%	CCOC(=O)Cc1csc(NC(=O)Cc2ccccc2)n1

Structural class, the compounds so far with fluorine.
VDR inhibitor	smiles
-1%	NC(=S)Nc1ccc(F)cc1F
16%	CSc1ncccc1C(=O)OCc1c(F)cccc1Cl
8%	O=C(NCc1ccccn1)c1ccc(S(=O)(=O)Nc2ccccc2F)cc1
8%	COc1ccccc1NC(=O)C1=C(C)Nc2nc(SCc3ccccc3F)nn2C1c1ccncc1 (configuration not stated)
2%&2%	CC(C)(C)C(=O)NC1(C(F)(F)F)NC(=O)N(c2ccc(F)cc2)C1=O (configuration not stated)
1%	CSc1nnc(-c2ccc(C(F)(F)F)cn2)o1
10%	CCOc1ccc(NC(=O)CCn2cnc3onc(-c4ccc(F)cc4)c3c2=O)cc1
-6%	NNc1nc2c(-c3cccc(C(F)(F)F)c3)nnn2c2ccccc12
0%	CCOc1ccc(C(=O)c2cn(Cc3ccccc3)c3c(F)cc(F)cc3c2=O)cc1
-2%	COCCCNC(=O)CN(c1cc(C(F)(F)F)ccc1Cl)S(C)(=O)=O
-10%	Cc1ccc(-n2cc(CNC(C)c3cnn(C)c3)c(-c3ccc(F)cc3)n2)cc1 (configuration not stated)
7%	COc1ccccc1CNc1nccn(-c2ccc(F)cc2)c1=O
?	Cc1ccc(S(=O)(=O)NN2C(=O)/C(=C/c3cccc(F)c3)SC2=S)cc1
2%	O=C(Nc1cccc(S(=O)(=O)N2CCCCC2)c1)c1ccc(S(=O)(=O)C(F)F)cc1
-13%	CCN(CC(=O)NCc1ccc(F)cc1)S(=O)(=O)c1ccc(C)cc1
-5%	O=C1c2ccccc2C(=O)N1CSc1nnc(Nc2ccccc2F)s1
18%	O=C(NCc1nc(-c2ccc(C(F)(F)F)cc2)no1)Nc1ccc(F)cc1F
